Rce1 inh: yeast Ras-converting enzyme inhibition; Q03530; yeast membranes, quenched prenylated peptide cleavage fluorescence; calls only; actives 0.27% (n = 290,000); AID 2563;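 active means fall in fluorescence gain of 50% or more versus controls, with final raw signal at or below 3038400; inconclusive means same 50% fall but final raw signal above 3038400; inactive means fall in fluorescence gain under 50%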;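 further: plate controls were neutral control wells for no effect and wells lacking membranes for full effect; tested at 10 µM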
Target sequence (Q03530 whole entry, looked up): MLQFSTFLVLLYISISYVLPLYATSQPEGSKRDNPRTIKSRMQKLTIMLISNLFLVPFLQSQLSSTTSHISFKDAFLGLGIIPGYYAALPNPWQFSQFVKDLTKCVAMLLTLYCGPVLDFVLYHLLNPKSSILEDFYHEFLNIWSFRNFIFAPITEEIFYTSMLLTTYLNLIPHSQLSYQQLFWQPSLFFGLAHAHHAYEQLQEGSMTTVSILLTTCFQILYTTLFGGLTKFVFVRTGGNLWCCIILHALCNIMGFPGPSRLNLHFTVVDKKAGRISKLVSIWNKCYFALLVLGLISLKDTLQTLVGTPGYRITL
eIF4H FP inh: inhibitors of RNA binding by human eIF4H; eIF4H fluorescence polarization binding assay; inhibition, % at 35 µM; Q15056; actives 0.94% (n = 290,000);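 active means 50% or more with normal probe brightness, or confirmed in later tests; inconclusive means above 50% with abnormal brightness, or retests that disagree; inactive means below 50% or failed in later tests; about a fifth of its hits are not listed in these tables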;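 further: calls also rest on retests at 20 µM and on dose response follow-up; 0% = protein and probe with vehicle and 100% = probe without protein; strong numbers were not always called active; many hits fall short of the cut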
Yeast UUG start: modulators of start codon recognition fidelity in yeast; activity score, % at 18.7 µM; AID 602363; actives 0.13% (n = 350,000); S. cerevisiae UUG-firefly luciferase reporter, luminescence/redox ratio;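 active means replicate mean at a twofold rise or more, about +100% in these data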;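 further: firefly luciferase made from a UUG start codon reports start codon fidelity; reporter light over untreated wells divided by growth signal over untreated wells; some hits fall short of that in this replicate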
CSC inhib: blocks cancer stem cells | inhibition, % at 7.5 µM | cancer stem cell-like cells viability, luminescence | actives 1.1% (n = 300,000);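 active means mean at 75% or more and at least half the replicates too; inconclusive means mean and replicates disagree; tested in HMLE shEcad cells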;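 further: 0% = median of negative and 100% = median of positive control wells; the first replicate is given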
HIV Env fusion: inhibitors of HIV Env-mediated cell fusion; HeLa-JRFL Env/CEM21 cell fusion, luciferase; inhibition, % at 12.3 µM; actives 1.1% (n = 360,000); AID 651610;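 active means mean replicate inhibition score of at least 50 and every replicate individually at or above 50; inconclusive means only one of the two criteria met; inactive means mean below 50 and not all replicates reaching 50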;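 further: 0% = plate neutral controls and 100% = maraviroc near 300 nM; one replicate is shown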
PABP FP inh: blocks human PABP binding to poly(A) RNA. P11940. fluorescence polarization. inhibition, % at 35 µM. actives 1% (n = 290,000);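 active means 50% or more with normal probe brightness, or confirmed in later tests; inconclusive means above 50% with abnormal brightness, or retests that disagree; inactive means below 50% or failed in later tests; about a fifth of its hits are not listed in these tables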;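 further: calls also rest on retests at 20 µM and on dose response follow-up; controls were probe without protein and protein plus probe with vehicle; some compounds called inactive have numbers as strong as hits; many hits fall short of the cut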
Target sequence (P11940 whole entry, looked up): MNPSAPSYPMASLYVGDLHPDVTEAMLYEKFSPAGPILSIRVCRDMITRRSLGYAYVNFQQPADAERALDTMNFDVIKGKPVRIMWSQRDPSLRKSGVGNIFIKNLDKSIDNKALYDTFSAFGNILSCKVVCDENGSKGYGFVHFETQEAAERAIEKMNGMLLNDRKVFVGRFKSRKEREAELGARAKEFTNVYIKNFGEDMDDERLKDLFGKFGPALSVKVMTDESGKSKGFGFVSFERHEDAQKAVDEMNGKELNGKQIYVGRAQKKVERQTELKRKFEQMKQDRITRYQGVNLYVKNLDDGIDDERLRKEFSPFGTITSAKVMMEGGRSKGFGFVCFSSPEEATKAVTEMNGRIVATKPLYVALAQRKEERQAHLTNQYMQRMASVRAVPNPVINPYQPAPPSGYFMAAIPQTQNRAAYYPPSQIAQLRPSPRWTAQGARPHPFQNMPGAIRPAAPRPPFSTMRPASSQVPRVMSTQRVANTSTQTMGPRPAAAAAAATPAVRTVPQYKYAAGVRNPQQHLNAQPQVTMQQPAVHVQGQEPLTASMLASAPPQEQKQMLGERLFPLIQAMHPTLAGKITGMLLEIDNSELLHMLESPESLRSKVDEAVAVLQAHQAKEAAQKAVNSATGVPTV
MT1-MMP act inh: inhibitors of human MT1-MMP activation | P50281 | HT1080 RFP-PRO-GFP cells, GFP/RFP ratio fluorescence, overnight; percent of plate control window, DMSO zero | GFP/RFP ratio change, % at 20 µM | actives 0.061% (n = 360,000);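 active means GFP/RFP ratio change of at least 30% with cell ATP level not reduced by more than half and red fluorescence within 50% of control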; further: strong numbers were not always called active
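Material: RFP-PRO-GFP reporter HT1080 cells. Dosing: single-point 20 µM compound, 1% DMSO. Controls: DMSO and RFP-L50D-GFP cell wells. Timing: cells overnight before dosing, compound overnight, 37 °C, 5% CO2. Measure: GFP/RFP fluorescence ratio.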
eIF4H FP inh retest: also measured in eIF4H FP inh; calls as there; inhibition, %; compound at 20 µM; confirmation average;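 mean of two retest wells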
PABP FP inh retest: further read-out of PABP FP inh, marked with its call; inhibition, %; compound at 20 µM; confirmation repeats;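 mean of two retest wells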
MT1-MMP act inh RFP: recorded beside MT1-MMP act inh, whose call it bears; RFP signal change, %; measured here: RFP expression control read;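 0 = vehicle wells; hits needed this value within 50% of zero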
The depositor's hits bear a star; i = inactive; ? = inconclusive; . = no result given; & = joins results of further samples.

SMILES | Rce1 inh | eIF4H FP inh | Yeast UUG start | CSC inhib | HIV Env fusion | PABP FP inh | MT1-MMP act inh | MT1-MMP act inh RFP | others
COc1ccc(NCc2n[nH]c(=O)c3ccccc23)cc1 | i | 24.8 | -1.6 | -18.9 | -32.3 | 2.1 | 7.5 | 2.4
CCN(C(=O)COC(=O)C1CC1C)c1c(N)n(Cc2ccccc2)c(=O)[nH]c1=O (centres undefined) | . | . | -7.5 | . | -5.9 | . | -1.4 | 3.2
Cc1ccc(NC(=S)N(CCN(C)C)Cc2cccs2)c(C)c1 | i | 3.9 | . | -11.9 | 17.1 | -7.7 | 1.7 | 0.1
CCS(=O)(=O)Nc1ccc(C2=NN(C(=O)c3ccco3)C(c3ccc(Cl)o3)C2)cc1 (centres undefined) | . | . | -20.7 | -1.5 | 3.6 | . | 0.6 | -8.4
COC(=O)[C@@H]1[C@@H](C)N(Cc2ccccc2)C(=O)N[C@H]1c1cccc(C(F)(F)F)c1 | i | -2.3 | -18.1 | -2.4 | 12.7 | 5.2 | 5.3 | -7.0
CCCc1cc(N2CCC(C(N)=O)CC2)nc(-c2ccccc2)n1 | i | 7.8 | . | -8.4 | 8.8 | -8.3 | -3.0 | -1.3
Cc1ccc(C(=O)N2CCCCC2)cc1S(=O)(=O)N1CCCC1 | i | -4.6 | -9.4 | 7.9 | 5.1 | 0.6 | -1.1 | 2.6
COc1cccc(C(=O)NCCS(=O)(=O)N(C)C2CCCCC2)c1 | i | . | 2.8 | -3.3 | . | . | 1.9 | 1.0
CC(=O)c1ccc(S(=O)(=O)N2CCN(C(=O)CSC(=S)N3CCCC3)CC2)cc1 | i | . | . | -6.9 | -10.2 | . | -3.8 | -0.6
Cc1ccccc1NC(=O)CN1CCCC1 | . | . | -16.0 | . | 7.5 | . | 0.7 | 7.9
O=C(O)CCSc1nnc(CNc2ccc(Cl)cc2)n1Cc1ccccc1 | i | -2.9 | . | -8.5 | 6.7 | 4.3 | -1.6 | -1.1
CCN1CCN(Cc2c(O)ccc3c2O/C(=C\c2ccccc2)C3=O)CC1 | i | ? | . | -7.9 | -14.4 | -3.3 | -16.0 | -3.3
Cc1cc(C)cc(N(CC(=O)NC(C)(C)C)C(=O)CCC(=O)Nc2ccccn2)c1 | i | -1.5 | -18.7 | -47.1 | -5.3 | 11.3 | -1.5 | -0.9
Cc1ccc(S(=O)(=O)/N=C2/NC(=O)/C(=C/c3ccccc3)S2)cc1 | . | 2.7 | . | 12.8 | 16.6 | 18.2 | 3.7 | -5.9
N#Cc1ccc(CN2CCN(C(=O)c3ccccc3)CC2)c(Cl)c1 | i | 2.0 | -0.8 | -9.6 | 10.1 | 7.6 | 1.4 | 0.7
COc1ccc(S(=O)(=O)N2CCC(C(=O)NC(C)CCc3ccccc3)CC2)cc1 (centres undefined) | i | -5.7 | -16.9 | -7.1 | -9.3 | -3.2 | -0.4 | -5.2
CCOC(=O)C1C(c2ccc(Cl)cc2)NC(=S)NC1(O)C(F)(F)F (centres undefined) | i | 8.6 | . | -7.3 | 8.5 | 40.7 | -2.9 | -1.4
COc1ccc2c(C)cc(SCC(=O)NCCN3C(=O)CSC3=O)nc2c1 | i | -2.2 | . | . | 10.2 | -0.8 | -1.4 | -1.5
COc1ccc(C(=O)NCCNC(=O)c2cnccn2)cc1 | i | -1.5 | . | -5.1 | -6.1 | 11.3 | -2.1 | -3.2
CN(C)c1ccc(S(=O)(=O)NCC(=O)OCC(=O)Nc2cccc(Cl)c2)cc1[N+](=O)[O-] | i | -1.5 | 3.7 | -10.7 | 2.6 | -12.5 | 1.5 | 0.7
NC(=O)COC(=O)CC(c1ccccc1)c1ccccc1 | i | -8.3 | . | . | -75.9 | 90.0 | -1.3 | -2.0 | eIF4H FP inh retest=-8.0;PABP FP inh retest=12.9
COc1cc(CN2CCCC(C(=O)c3ccc(SC)cc3)C2)cc(Cl)c1O (centres undefined) | i | 4.6 | -18.7 | 66.5 | 13.1 | 0.7 | 1.9 | -9.4
Nc1nc2sc3c(c2c(=O)s1)CCCC3 | i | -10.4 | -7.1 | 7.7 | . | 7.0 | 7.4 | 3.1
COc1ccc(-c2cc(C)no2)cc1S(=O)(=O)NCC(C)c1ccccc1 (centres undefined) | i | -2.8 | -8.6 | -6.8 | 55.9* | -3.5 | 1.1 | -5.8
Cc1ccc(C(CC(N)=O)c2ccco2)cc1 (centres undefined) | i | 0.5 | . | -10.1 | -30.9 | -7.3 | -1.3 | 3.6

Filtered by structure: the entries above containing fluorine
SMILES | Rce1 inh | eIF4H FP inh | Yeast UUG start | CSC inhib | HIV Env fusion | PABP FP inh | MT1-MMP act inh | MT1-MMP act inh RFP | others
COC(=O)[C@@H]1[C@@H](C)N(Cc2ccccc2)C(=O)N[C@H]1c1cccc(C(F)(F)F)c1 | i | -2.3 | -18.1 | -2.4 | 12.7 | 5.2 | 5.3 | -7.0
CCOC(=O)C1C(c2ccc(Cl)cc2)NC(=S)NC1(O)C(F)(F)F (centres undefined) | i | 8.6 | . | -7.3 | 8.5 | 40.7 | -2.9 | -1.4

Later entries
SMILES | Rce1 inh | eIF4H FP inh | Yeast UUG start | CSC inhib | HIV Env fusion | PABP FP inh | MT1-MMP act inh | MT1-MMP act inh RFP | others
CCN(CC1CCCN(CCc2cccc(F)c2)C1)C(=O)c1ccoc1C (centres undefined) | . | . | -12.6 | . | 2.3 | . | -0.1 | 2.6
COc1cc2c(cc1NC(=O)c1cccc(F)c1)CCCC2 | i | -6.2 | 0.7 | -6.4 | 6.1 | -9.1 | 0.0 | 0.8
O=C(COC(=O)Cc1ccc([N+](=O)[O-])cc1)NCc1ccc2c(c1)OCO2 | . | . | -16.1 | 2.5 | -2.8 | . | -0.4 | 0.1
CN(Cc1ccon1)C(=O)c1ccc2nc(Cc3cccc(Cl)c3)oc2c1 | i | 4.6 | 9.7 | -6.6 | -14.1 | 1.9 | 2.5 | -3.9
CCCCSCCCNC(=O)CCCN1C(=O)c2ccccc2Sc2ncccc21 | i | 5.8 | -12.7 | -12.8 | 15.7 | 12.5 | 0.1 | 1.6
CCN(CC)c1ccc(/C=N/OCC(=O)Nc2cccc(C)c2)cc1 | i | 84.2 | . | -35.1 | . | -14.6 | -14.2 | -2.1 | eIF4H FP inh retest=-5.3;PABP FP inh retest=-0.6
CCC(Sc1nnc2c3ccccc3n(CC)c2n1)C(=O)Nc1sc2c(c1C#N)CCCC2 (centres undefined) | i | 1.1 | . | 24.6 | -69.3 | -1.6 | -1.3 | -1.2
C[C@H](CO)N1C[C@H](C)[C@@H](CN(C)S(C)(=O)=O)Oc2c(NC(=O)Nc3ccc(C(F)(F)F)cc3)cccc2C1=O | . | . | 9.0&-3.8 | . | -58.4 | . | 6.8 | 0.5
O=C(CSc1nc2[nH]c(=O)cc(O)c2s1)Nc1cccc(Br)c1 | . | . | -15.1 | -2.7 | . | . | -1.4 | -0.6
O=C1C=C(c2ccc(O)cc2)C[C@@H](c2ccc(Cl)cc2)C1 | . | . | -1.3 | 44.5 | -25.4 | . | 4.5 | 0.6
O=C(CNc1ccc(Br)cc1)NC(=O)NC1CCCCC1 | . | . | -2.8 | . | -12.5 | . | 2.4 | 0.3
CCn1c(SCC(=O)c2ccccc2)nc2sc3c(c2c1=O)CCN(C)C3 | i | 28.9 | -0.7 | -1.9 | -1.3 | 21.8 | -7.2 | -0.7
CCSc1nnc(COc2ccccc2)n1CC | i | -2.9 | -18.7 | 2.6 | 14.4 | -7.6 | 1.0 | 1.2
Cc1cc(C)cc(C(=O)NCC(=O)N2CCC3(CC2)NCCc2[nH]cnc23)c1 | i | 12.2 | -18.3 | -10.3 | -5.4 | -2.3 | 0.8 | 2.8
COc1cc(C2C3C(C)N(C)C(=O)N(C)C3N(C)C(=O)N2C)ccc1O (centres undefined) | i | -0.2 | -20.3 | -12.2 | . | -2.6 | -1.4 | 3.1
CCOc1ccccc1NC(=S)Nc1ccccc1F | i | -5.8 | -27.4 | -9.5 | . | -9.9 | -2.9 | 3.4
O=C(O)CNC(=O)C1CCCN1C(=O)CNC(=O)OCc1ccccc1 (centres undefined) | i | 7.2 | 0.2 | 5.0 | -1.1 | -3.1 | 1.6 | 2.2
CCC(C)NC(=O)c1ccccc1NC(=O)Nc1ccccc1 (centres undefined) | i | 7.0 | -13.3 | . | -36.4 | 13.4 | 2.5 | 3.1
O=C1CCC(C(=O)N2CCN(c3cnccn3)CC2)CN1CCc1cccc(F)c1 (centres undefined) | i | 3.0 | -5.5 | 2.4 | 28.2 | 14.5 | 0.2 | 0.7
OCCn1c(CSc2nc3ccccc3n2CCO)nc2ccccc21 | i | -8.9 | -10.3 | -22.9 | . | -3.1 | -0.7 | -0.1
O=C(N1CCOCC1)N1CCCC(c2nc(-c3cccs3)no2)C1 (centres undefined) | i | 3.5 | -7.5 | . | 4.8 | -0.2 | 4.3 | -2.4
Cc1cccc(Nc2ncccc2C(=O)NCc2cccs2)c1C | i | 1.7 | -17.6 | 6.8 | -14.8 | -0.6 | -15.1 | -8.5
CC1(C)C2CCC1(C)C1(C2)NC(=O)c2ccccc2O1 (centres undefined) | i | 7.0 | . | 40.2 | . | 5.9 | 0.9 | 0.9
CCCCCOC(=O)Cn1c(N2CCCCCC2)nc2c1c(=O)[nH]c(=O)n2C | i | -3.8 | -9.1 | 8.3 | . | -1.1 | 0.2 | 0.9
O=C(NC1=NCCS1)c1cccc(F)c1 | i | . | -8.6 | 1.1 | -11.7 | . | -1.3 | 3.2

Continued.
SMILES | Rce1 inh | eIF4H FP inh | Yeast UUG start | CSC inhib | HIV Env fusion | PABP FP inh | MT1-MMP act inh | MT1-MMP act inh RFP | others
Cc1ccc2nc(SCC(=O)N(CC(C)C)c3c(N)n(Cc4ccccc4)c(=O)[nH]c3=O)[nH]c2c1 | i | -2.6 | -11.0 | -18.9 | -2.9 | -2.6 | -2.9 | -1.4
CC(=O)NC(c1ccc(F)c(F)c1)c1nc(-c2ccccc2)cs1 (centres undefined) | . | . | -9.7 | . | 8.5 | . | 0.1 | -1.1
CC(C)c1ccc(/C=C(\c2nc3ccccc3[nH]2)S(=O)(=O)c2ccccc2)cc1 | i | -5.5 | . | 46.4 | -447.1 | 4.4 | -21.8 | -29.8
C=CCOC(=O)c1sc(NC(=O)c2ccc(OC)cc2)nc1C | i | -9.9 | . | 58.6 | -71.0 | -9.9 | 2.9 | 0.1
Cc1nnc(SCc2ccccc2)n1CC1CCCO1 (centres undefined) | i | -1.5 | -9.3 | -8.3 | -32.4 | -6.0 | -3.9 | -0.7
CCOC(=O)c1sc(NC(=O)CC)c(C#N)c1C | i | -11.9 | -18.1 | -4.6 | -0.3 | -5.0 | 5.4 | 1.8
O=C(CN1CCCCC1)Nc1ccccc1 | i | 1.3 | -7.0 | -17.2 | -29.0 | -2.6 | -0.4 | 3.1
CC1CCCCN1C(=O)c1ccc(Br)o1 (centres undefined) | i | -5.9 | -13.5 | 6.2 | -53.8 | -13.9 | -0.8 | 1.2
CC(C)(C)n1nc(-c2ccc(Cl)cc2)c2c(N)ncnc21 | i | -9.2 | . | -3.0 | . | -6.6 | -10.6 | -2.1
O=c1[nH]nc(C(F)(F)F)c2nnn(Cc3ccccc3Cl)c12 | i | 7.5 | -10.6 | -4.8 | 0.5 | 3.7 | -2.7 | 1.6
CCNC(=S)NNC(=O)c1ccc(OC(F)F)cc1 | i | -2.6 | -24.0 | -21.6 | . | 13.5 | 2.7 | 2.7
COc1ccc(/C=N/NC(=O)C(C)n2nnc3ccccc32)cc1OC (centres undefined) | i | 2.8 | -8.1 | -5.0 | . | -4.9 | -1.8 | 0.1
